CSC inhib: blocks cancer stem cells; cancer stem cell-like cells viability, luminescence; inhibition, % at 7.5 µM; actives 1.1% (n = 300,000);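 active means mean at 75% or more and at least half the replicates too; inconclusive means mean and replicates disagree; tested in HMLE shEcad cells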;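 further: 0% = median of negative and 100% = median of positive control wells; the first replicate is given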
Yeast UUG start: yeast start codon fidelity modulation. S. cerevisiae UUG-firefly luciferase reporter, luminescence/redox ratio. activity score, % at 18.7 µM. actives 0.13% (n = 350,000). AID 602363;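 active means replicate mean at a twofold rise or more, about +100% in these data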;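 further: firefly luciferase made from a UUG start codon reports start codon fidelity; reporter light over untreated wells divided by growth signal over untreated wells; some hits fall short of that in this replicate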
HIV Env fusion: HIV envelope-mediated fusion inhibition; actives 1.1% (n = 360,000); inhibition, % at 12.3 µM; HeLa-JRFL Env/CEM21 cell fusion, luciferase; AID 651610;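 active means mean replicate inhibition score of at least 50 and every replicate individually at or above 50; inconclusive means only one of the two criteria met; inactive means mean below 50 and not all replicates reaching 50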;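 further: 0% = plate neutral controls and 100% = maraviroc near 300 nM; one replicate is shown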
eIF4H FP inh: inhibitors of RNA binding by human eIF4H; eIF4H fluorescence polarization binding assay; Q15056; inhibition, % at 35 µM; actives 0.94% (n = 290,000);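 active means 50% or more with normal probe brightness, or confirmed in later tests; inconclusive means above 50% with abnormal brightness, or retests that disagree; inactive means below 50% or failed in later tests; about a fifth of its hits are not listed in these tables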;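 further: calls also rest on retests at 20 µM and on dose response follow-up; 0% = protein and probe with vehicle and 100% = probe without protein; strong numbers were not always called active; many hits fall short of the cut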
MT1-MMP act inh: inhibitors of human MT1-MMP activation; P50281; HT1080 RFP-PRO-GFP cells, GFP/RFP ratio fluorescence, overnight; percent of plate control window, DMSO zero; GFP/RFP ratio change, % at 20 µM; actives 0.061% (n = 360,000);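 active means GFP/RFP ratio change of at least 30% with cell ATP level not reduced by more than half and red fluorescence within 50% of control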; further: strong numbers were not always called active
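Assay system: HT1080 RFP-PRO-GFP cells. Benchmarks: DMSO vehicle wells and RFP-L50D-GFP reporter cell wells. Times: overnight cell settling, then overnight compound exposure, 37 °C, 5% CO2. Compound: 20 µM single dose, 1% DMSO. Read-out basis: GFP/RFP fluorescence ratio.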
Rce1 inh: inhibitors of yeast Ras-converting enzyme; yeast membranes, quenched prenylated peptide cleavage fluorescence; calls only; AID 2563; Q03530; actives 0.27% (n = 290,000);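 active means fall in fluorescence gain of 50% or more versus controls, with final raw signal at or below 3038400; inconclusive means same 50% fall but final raw signal above 3038400; inactive means fall in fluorescence gain under 50%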;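 further: plate controls were neutral control wells for no effect and wells lacking membranes for full effect; tested at 10 µM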
Target sequence (Q03530 whole entry, looked up): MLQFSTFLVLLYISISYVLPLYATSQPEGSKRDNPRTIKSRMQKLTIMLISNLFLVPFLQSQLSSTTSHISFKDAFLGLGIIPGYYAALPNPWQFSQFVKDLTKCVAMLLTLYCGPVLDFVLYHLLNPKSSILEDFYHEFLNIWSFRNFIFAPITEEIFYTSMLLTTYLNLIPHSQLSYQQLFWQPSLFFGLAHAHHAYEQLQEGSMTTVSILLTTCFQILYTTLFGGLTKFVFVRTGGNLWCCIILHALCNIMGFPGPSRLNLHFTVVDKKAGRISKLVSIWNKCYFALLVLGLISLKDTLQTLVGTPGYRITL
PABP FP inh: PABP-poly(A) binding inhibition; P11940; PABP-poly(A) RNA binding, fluorescence polarization; inhibition, % at 35 µM; actives 1% (n = 290,000);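 active means 50% or more with normal probe brightness, or confirmed in later tests; inconclusive means above 50% with abnormal brightness, or retests that disagree; inactive means below 50% or failed in later tests; about a fifth of its hits are not listed in these tables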;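 further: calls also rest on retests at 20 µM and on dose response follow-up; controls were probe without protein and protein plus probe with vehicle; some compounds called inactive have numbers as strong as hits; many hits fall short of the cut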
MT1-MMP act inh RFP: second read-out of MT1-MMP act inh, no call of its own (marks repeat the call); RFP signal change, %; measured here: RFP expression control read;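 0 = vehicle wells; hits needed this value within 50% of zero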
* marks the source's active call; other numbers are inactive results; i = inactive; ? = inconclusive; . = no result given; & = joins results of further samples. Only part of the results is shown (hit frequency here may not be typical).

SMILES	CSC inhib	Yeast UUG start	HIV Env fusion	eIF4H FP inh	MT1-MMP act inh	MT1-MMP act inh RFP	Rce1 inh	PABP FP inh
O=C(CN1CCN(c2ccccn2)CC1)Nc1cccc(S(=O)(=O)N2CCCC2)c1	-19	.	5	2	-2	-11	i	-4
COC(=O)/C=C1\SC(=Nc2ccccc2)NC1=O	3	-5	.	-12	1	1	i	2
C[C@H](CO)N1C[C@H](C)[C@@H](CN(C)C(=O)NC2CCCCC2)Oc2c(NS(=O)(=O)c3ccccc3)cccc2C1=O	.	12&-8	-9	.	-11	-3	.	.
CCOC(=O)N1CCC(Nc2c([N+](=O)[O-])cc(C(=O)O)cc2[N+](=O)[O-])CC1	0	-14	-2	-10	0	0	i	15
O=C(c1ccccc1)N1CCN(S(=O)(=O)N2CCCCC2)CC1	7	-13	.	-14	2	1	i	-8
CC(NC(=O)C(Cc1ccccc1)NC(=O)c1ccccc1)C(=O)O (stereo not drawn)	8	-4	-114	2	-1	-2	i	0
O=C(NCCOc1ccc(Cl)cc1)c1ccc2ccccc2n1	11	.	-9	6	-2	-2	i	2
COc1c(O)ccc2cnn(-c3ccccc3C)c(=O)c12	-19	-3	23	2	-1	9	i	9
CCOC(=O)c1c(C)[nH]c(C)c1S(=O)(=O)N(C)CC(=O)NCc1ccc(F)cc1	-21	9	5	-2	3	-1	i	-8
CCOC(=O)[C@@H]1[C@H]2COc3ccccc3[C@H]2N2C(=O)N(c3ccc(OC)cc3)C(=O)[C@]12C	-7	5	-47	-8	-2	-1	i	-3
Cc1ccc(-c2nc(CS(=O)CC(=O)NCc3ccccc3)c(C)o2)cc1 (stereo not drawn)	6	-7	-2	3	6	1	i	-3
CCCNc1c(NS(=O)(=O)c2cccc(C#N)c2)c(=O)oc2ccccc12	-13	-9	4	-5	0	1	i	7
Nn1c(SCC(=O)Nc2ccccc2Br)nnc1-c1ccco1	-15	-16	0	-15	-1	1	i	35
O=C(NCc1nnnn1-c1cccc(F)c1)c1ccc(S(=O)(=O)N2CCOCC2)cc1	-6	18	-7	.	2	-1	i	.
COCCCN(C(=O)c1ccccc1)c1nc(-c2ccc(OC)cc2)cs1	-5	-14	23	-8	0	-7	i	-7
COc1ccccc1C(=O)Nc1nnc(S(=O)(=O)N2CCC(C)CC2)s1	9	-17	-12	-4	4	1	i	7
N#Cc1sc2nc(C3CC3)cc(-c3ccccc3)c2c1N	0	-12	-21	-5	2	0	i	-10
CC(=O)n1cc([C@@H]2C=C(C(=O)N3CCN(Cc4ccccc4)CC3)O[C@H](OCc3ccc(CO)cc3)C2)c2ccccc21	3	-11	10	14	-3	-7	i	5
Cc1cc(C)c(C(O)c2ncc(-c3cccc4ccccc34)[nH]2)c(C)c1 (stereo not drawn)	.	-14	-14	.	-3	0	.	.
COc1ccc(NC(=O)C2(C)CCN2C(=O)CC2CCCC2)cc1OC (stereo not drawn)	.	3	-8	.	0	-1	.	.
CC1CCN(C(=O)CCNC(=O)c2ccccc2)CC1	0	-8	-12	-10	1	3	.	-11
CC12CC3CC(C)(C1)CC(C(=O)NCc1ccco1)(C3)C2	-11	.	23	-8	-2	-1	i	-3
CCCn1cc(SCC(N)=O)c2ccccc21	3	-16	3	0	0	5	i	-11
CCCCN(CC)CCCNC(=O)c1cn(CC(C)C)c(=O)c2c1c1ccccc1n2C	-11	4	5	5	-2	2	i	-10
Cc1ccc(O)c(-c2cc(C(=O)Nc3ccc(S(=O)(=O)Nc4nc(C)cc(C)n4)cc3)[nH]n2)c1	?	.	0	-3	14	3	i	3
O=C(CCNC(=O)c1ccc(Br)o1)NC1CCCC1	-17	-20	2	15	2	3	i	-2
CC(C)(C)/C(COc1ccccc1[N+](=O)[O-])=N/O	.	-22	-29	-3	-4	-1	i	28
COc1cc(/C=N/NS(=O)(=O)c2ccc(C)cc2)ccc1OCc1ccc(C(=O)O)cc1	7	.	72*	0	0	3	i	11
CCOC(=O)C1(CC2CCCCO2)CCN(C(=O)Nc2ccccc2)CC1 (stereo not drawn)	-2	0	1	-9	1	3	i	1
CCc1nc2c(OCC3CCCCC3)cccn2c1N(C)C(=O)c1ccc(OC)cc1	.	-15	7	.	-1	-5	.	.
O=C(O)CSc1c2c(nc3cc(C(=O)NCCN4CCOCC4)ccc13)CCC2	-3	.	4	0	.	.	i	0
COC(=O)c1sc(N2CCCCC2)c(C#N)c1N	-15	.	-9	-2	2	1	i	-6
Cc1scc(C(=O)N2CCN(S(C)(=O)=O)CC2)c1-c1ccccc1	-13	1	-9	-5	1	8	i	2
CCOC(=O)N1CCN(C(=O)CN2C(=O)COc3ccc(S(=O)(=O)N4CCOCC4)cc32)CC1	.	12	-6	-8	-4	2	i	3
CC(Sc1ccc(Cl)cc1)C(=O)Nc1ccc(S(=O)(=O)N2CCOCC2)cc1 (stereo not drawn)	-5	-13	-19	2	2	-3	i	1
O=C1C2CCCN2C(=O)N1CCCCN1CCN(c2cccc(Cl)c2)CC1 (stereo not drawn)	-5	-9	.	-7	5	3	i	0
CC(C)(C)NC(=O)Cn1nnnc1-c1nonc1N	-6	-9	.	-6	6	5	i	-4
CCOc1ccc(Nc2nc(NCC3CCCO3)c3ccccc3n2)cc1 (stereo not drawn)	-15	.	21	-1	4	-22	i	1
CN(C(=O)C1CCCO1)C1CCS(=O)(=O)C1 (stereo not drawn)	-11	.	.	.	3	3	i	.
Cc1cc(C)c2c(CN3CCC(C)CC3)cc(=O)oc2c1C	8	2	-13	2	0	3	i	17
CC1(C)NC(=O)N(CC(=O)NNC(=O)c2ccccc2F)C1=O	.	9	-7	.	2	4	.	.
O=C(CC1C(=O)N(c2ccc(F)cc2)C(=O)N1Cc1ccccn1)Nc1ccccc1 (stereo not drawn)	0	-18	-49	5	-1	4	i	3
NS(=O)(=O)c1ccc(F)c(C(=O)O)c1	-1	18	2	-3	1	4	.	7
COc1ccc(N2CCN(C(=O)c3[nH]c4ccc(OC)cc4c3C)CC2)cc1	-2	-7	-1	-8	12	5	i	2
COc1ccc(CCNC(=O)CCn2c(=O)c3cccn3c3ccc(F)cc32)c(OC)c1OC	-11	-9	-3	-6	2	4	i	-2
CC(C)CCNc1nc2c(cc1C#N)COC(C)(C)C2	5	3	-78	-2	-7	0	i	7
CCCCCCS(=O)[C@H]1CS(=O)(=O)C[C@@H]1S(=O)CCCCCC (stereo partly drawn)	3	-6	.	2	5	4	i	2
COC(=O)C1CN(C(=O)c2cccc(OC(F)F)c2)c2ccccc2O1 (stereo not drawn)	5	2	2	4	-2	1	i	-2
CCCC(C)C(=O)Nc1ccc(S(=O)(=O)N2CCCC2)cc1 (stereo not drawn)	-4	-3	8	-7	1	0	i	7
COc1ccc(N(CC(=O)NCc2ccco2)S(C)(=O)=O)cc1Cl	-15	5	-34	1	6	4	i	-11
(next part)
SMILES	CSC inhib	Yeast UUG start	HIV Env fusion	eIF4H FP inh	MT1-MMP act inh	MT1-MMP act inh RFP	Rce1 inh	PABP FP inh
CC(C)CNC(=O)c1ccccc1NC(=O)c1ccccc1N(C)S(=O)(=O)c1ccccc1	-10	2	78*	2	-7	4	i	30
C1CCC(Nc2nnnn2C2CCCCC2)CC1	5	-7	.	3	-2	0	i	2
COCC1CCN(C(=O)c2cc(COc3ccccc3SC)on2)C1 (stereo not drawn)	-7	2	1	-12	-1	-6	i	6
CN(C)C(CNc1ncnc2sccc12)c1ccccc1 (stereo not drawn)	-6	-10	-5	-11	3	2	i	5
Oc1sc(C=Nc2ccccc2)c2ccccc12	3	-2	-169	?	-159	2	i	-2
COCCN(C(=O)CSc1nnc(-c2ccccc2F)n1N)c1c(N)n(Cc2ccccc2)c(=O)[nH]c1=O	6	-12	.	-7	1	2	.	-5
CCCC(=O)Nc1cc(S(=O)(=O)N2CCCCC2)ccc1N1CCOCC1	-6	-14	.	.	3	3	.	.
O=CN1CCN(C(=O)COc2ccc(Cl)cc2Br)CC1	11	.	8	5	-2	0	i	-2
CCc1ccc(C(O)(C(C)C)C(CN2CCOCC2)c2ccccc2)cc1 (stereo not drawn)	-2	11	40	-5	-7	-8	i	15
COC(=O)c1cc(S(=O)(=O)NCC(C)c2ccccc2)cn1C (stereo not drawn)	1	-1	-3	10	2	-2	i	4
Cc1cccc(OCC(=O)Nc2ccccc2C(F)(F)F)c1	-9	.	.	-12	1	5	i	-8
Cc1ccccc1NC(=O)c1ccc(S(=O)(=O)N2CCCC2)cc1	.	-9	-9	1	0	-1	i	-1
CCCCn1c(N)c(N(CCOC)C(=O)COC(=O)COc2c(C)cc(C)cc2C)c(=O)[nH]c1=O	3	4	5	.	-1	-1	i	.
C=CCn1cc(Cl)cc(C(=O)Nc2ccccc2)c1=O	.	-7	-3	-11	2	-1	i	-10
ClCCN1C2=NCCCN2c2ccccc21	-18	.	-14	0	-2	-3	i	6
FC(F)(F)c1ccccc1NC(=S)NN=C1CCCCCC1	29	.	-2	2	.	.	.	4
O=C(Nc1cccc(F)c1)NC1CCCc2ccccc21 (stereo not drawn)	10	-20	-1	-8	-4	-4	i	6
CCN(c1ccccc1)S(=O)(=O)c1cc(C(=O)NCc2ccccn2)ccc1C	.	-14	-31	.	-1	-4	.	.
CC1=CC(C)(C)Nc2ccc(OC(=O)CN3C(=O)c4ccccc4C3=O)cc21	14	.	8	-6	-71	12	i	1
CC1COc2ccccc2N1C(=O)c1cccnc1Cl (stereo not drawn)	-4	15	-4	-6	0	3	i	-1
Cc1ccccc1-c1nc(CN2CCC(C(=O)N3CCC(C(N)=O)CC3)CC2)c(C)o1	-4	-9	.	3	1	4	i	-16
CCOC(=O)CSc1nnc2c(n1)C1(C)CCC2C1(C)C (stereo not drawn)	12	-25	-84	-13	1	4	i	-7
O=C(COc1ccc(Br)cc1)Nc1ccc2c(c1)C(=O)NC2=O	1	.	1	-4	5	2	i	6
Cc1cc(C)c(NC(=O)CSCc2c(C)noc2C)c(C)c1	?	-15	-5	.	0	4	.	.
CCN(CC)c1ccc(/C=N/NC(=S)NCc2ccccc2)c(O)c1	46	-13	8	13	4	5	i	-4
CN(C)c1ccccc1C(=O)c1ccccc1N(C)C	37	-13	-123	-8	-2	-8	i	3
CN(C)CCNC(=O)c1sc2nc(-c3ccccc3)cc(C(F)(F)F)c2c1N	78*	-22	10	-4	-32	-1	i	0
O=C(CS(=O)(=O)c1ccccc1)Nc1ccc(N2CCOCC2)cc1	3	.	1	-5	5	6	i	-2
COc1ccc(NC(=O)CN2CCC(C(=O)c3ccc(C)cc3)CC2)c(OC)c1	12	-3	18	-9	1	-3	i	-9
Nc1cc(N)nc(SCc2nnnn2-c2ccc(Cl)cc2)n1	-6	-10	12	7	1	3	i	6
